# Env fusion inh: inhibitors of HIV-1 Env-driven cell-cell fusion, primary screen, HeLa-JRFL effector, CEM21 target cells, luciferase; inhibition, % at 12.3 µM; 360,000 tested, 1.1% active; AID 651610, 2012;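 active = mean replicate inhibition score of at least 50 and every replicate individually at or above 50; inconclusive = only one of the two criteria met; inactive = mean below 50 and not all replicates reaching 50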;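 note: 0% = plate neutral controls and 100% = maraviroc near 300 nM; one replicate is shown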
# Yeast UUG start: modulators of yeast start codon fidelity, primary screen, whole organism, S. cerevisiae, single point, plate reader; AID 602363, 2012; activity score, % at 18.7 µM; 350,000 tested, 0.13% active; S. cerevisiae UUG-firefly luciferase reporter, luminescence/redox ratio;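 active = replicate mean at a twofold rise or more, about +100% in these data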;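 note: firefly luciferase made from a UUG start codon reports start codon fidelity; reporter light over untreated wells divided by growth signal over untreated wells; some hits fall short of that in this replicate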
# * = called active by the depositor; u = inconclusive; & = joins results of further samples; [ ] = another dose, or the depositor's remark. Not all compounds are listed, so the mix of outcomes need not match the whole.
no.	structure	Env fusion inh	Yeast UUG start
1	C[C@@H]1CN([C@H](C)CO)C(=O)c2cccc(NC(=O)c3ccno3)c2O[C@H]1CN(C)S(=O)(=O)c1cccs1	6[16.7 µM]	-18
2	C[C@@H]1CN([C@@H](C)CO)C(=O)c2cc(NS(=O)(=O)c3cccs3)ccc2O[C@@H](C)CCCCO[C@@H]1CN(C)Cc1ccc2c(c1)OCO2	-45&-8[16.7 µM]	22
3	CC(C)C#Cc1cnc2c(c1)C(=O)N([C@H](C)CO)C[C@H](C)[C@@H](CN(C)C(=O)Cc1ccccn1)O2	-13[16.7 µM]	1
4	C[C@H](CO)N1C[C@H](C)[C@@H](CN(C)C(=O)Nc2ccc(F)cc2)Oc2cc(/C=C/c3ccccc3)ccc2S1(=O)=O	10[16.7 µM]	-10
5	CC(C)NC(=O)N(C)C[C@H]1Oc2ccc(NC(=O)Nc3ccc(F)cc3)cc2CC(=O)N([C@@H](C)CO)C[C@@H]1C	10[16.7 µM]	0
6	C[C@@H]1CCCCO[C@H](CN(C)S(=O)(=O)c2ccccc2)[C@H](C)CN([C@@H](C)CO)C(=O)c2cc(NC(=O)Nc3ccc(F)cc3)ccc2O1	-15[16.7 µM]	-5
7	C[C@@H]1CN([C@@H](C)CO)C(=O)c2cc(NC(=O)NC3CCCCC3)ccc2O[C@@H](C)CCCCO[C@@H]1CN(C)CC1CCCCC1	-3[16.7 µM]	16
8	C[C@H](CO)N1C[C@H](C)[C@@H](CN(C)C(=O)Cc2ccccn2)Oc2ncc(-c3cncnc3)cc2C1=O	2[16.7 µM]	6
9	C[C@@H]1CN([C@@H](C)CO)C(=O)c2cc(NC(=O)Nc3ccc(C(F)(F)F)cc3)ccc2O[C@H]1CN(C)S(=O)(=O)c1ccc(Cl)cc1	15[16.7 µM]	-13
10	C[C@H]1CN([C@@H](C)CO)C(=O)Cc2cc(NC(=O)CCN3CCOCC3)ccc2O[C@H]1CN(C)S(=O)(=O)c1cccs1	-1[16.7 µM]	4
11	Cc1noc(C)c1NC(=O)Nc1ccc2c(c1)C(=O)N([C@@H](C)CO)C[C@@H](C)[C@@H](CN(C)S(=O)(=O)c1c(C)noc1C)O2	3[16.7 µM]	7
12	Cc1noc(C)c1S(=O)(=O)N(C)C[C@H]1OCCCC[C@H](C)Oc2ccc(NC(=O)Nc3ccc(F)cc3)cc2C(=O)N([C@@H](C)CO)C[C@@H]1C	21[16.7 µM]	-7
13	C[C@H]1CN([C@@H](C)CO)C(=O)c2cc(C#Cc3ccccc3)cnc2O[C@H]1CN(C)S(=O)(=O)c1ccccc1F	7[16.7 µM]	4
14	CC(C)NC(=O)N(C)C[C@H]1Oc2cc(C#Cc3cccc(F)c3)ccc2S(=O)(=O)N([C@@H](C)CO)C[C@@H]1C	4[16.7 µM]	9
15	C[C@H]1CCCCO[C@H](CN(C)S(=O)(=O)c2cn(C)cn2)[C@@H](C)CN([C@@H](C)CO)C(=O)c2cc(NC(=O)Nc3cccc4ccccc34)ccc2O1	-11[16.7 µM]	16
16	C[C@@H]1CN([C@@H](C)CO)C(=O)c2cc(NC(=O)NC3CCCCC3)ccc2O[C@H]1CN(C)Cc1ccc(-c2ccccc2)cc1	u	14
17	C[C@@H]1CN([C@@H](C)CO)C(=O)Cc2cc(NS(=O)(=O)c3cccs3)ccc2O[C@H]1CN(C)C(=O)Nc1ccc2c(c1)OCO2	-9[16.7 µM]	2
18	C[C@H](CO)N1C[C@H](C)[C@H](CN(C)C(=O)NC2CCCC2)Oc2ncc(C#CCN(C)C)cc2C1=O	-3[16.7 µM]	3
19	C[C@@H]1CN([C@@H](C)CO)C(=O)c2cc(-c3ccc(F)cc3)cnc2O[C@@H]1CN(C)C(=O)Nc1ccccc1F	-5[16.7 µM]	10
20	C[C@H](CO)N1C[C@H](C)[C@H](CN(C)C(=O)Nc2cccc3ccccc23)Oc2ccc(NS(=O)(=O)c3ccc(Cl)cc3)cc2C1=O	2[16.7 µM]	2
21	C[C@@H]1CN([C@@H](C)CO)C(=O)c2cc(-c3ccc(F)cc3)cnc2O[C@@H]1CN(C)CC1CCCC1	2[16.7 µM]	15
22	C[C@H]1CN([C@@H](C)CO)C(=O)c2cc(C#CCN(C)C)cnc2O[C@@H]1CN(C)Cc1ccccn1	-20[16.7 µM]	-21
23	CN(C)C(=O)C[C@H]1C=C[C@H](NC(=O)Nc2cccc(F)c2)[C@H](CO)O1	3[16.7 µM]	-4
24	Cc1ccccc1-c1cnc2c(c1)C(=O)N([C@H](C)CO)C[C@@H](C)[C@@H](CN(C)Cc1cncnc1)O2	-9[16.7 µM]	-6
25	O=C(Cc1ccccn1)NCC[C@H]1CC[C@H](NC(=O)c2ccccc2F)[C@@H](CO)O1	2[16.7 µM]	1

# Profiles as entered above.
# C[C@@H]1CN([C@@H](C)CO)C(=O)c2cc(NC(=O)NC3CCCCC3)ccc2O[C@H]1CN(C)Cc1ccc(-c2ccccc2)cc1 in the list: Env fusion inh: u; Yeast UUG start: 14
# C[C@@H]1CN([C@@H](C)CO)C(=O)c2cc(-c3ccc(F)cc3)cnc2O[C@@H]1CN(C)C(=O)Nc1ccccc1F in the list: Env fusion inh: -5[16.7 µM]; Yeast UUG start: 10

# (cont.)
no.	structure	Env fusion inh	Yeast UUG start
26	O=C(N[C@H]1CC[C@H](CCNS(=O)(=O)c2cccc(Cl)c2)O[C@@H]1CO)c1ccncc1	4[16.7 µM]	-11
27	CN1CCN(C(=O)C[C@@H]2C=C[C@H](NC(=O)c3ccc4c(c3)OCO4)[C@H](CO)O2)CC1	14[16.7 µM]	-10
28	C[C@@H]1CCCCO[C@@H](CN(C)Cc2ccncc2)[C@H](C)CN([C@@H](C)CO)C(=O)c2cc(NC(=O)CCC(F)(F)F)ccc2O1	6[16.7 µM]	-9
29	O=C(C[C@@H]1C=C[C@@H](NS(=O)(=O)c2ccccc2)[C@H](CO)O1)N1CCc2ccccc2C1	7[16.7 µM]	10
30	O=C(C[C@@H]1C[C@@H]2c3cc(NC(=O)Nc4ccccc4)ccc3O[C@@H]2[C@@H](CO)O1)NCc1cccnc1	-9[16.7 µM]	-12
31	COC(=O)C[C@H]1C[C@@H]2c3cc(NC(=O)CC4CC4)ccc3O[C@@H]2[C@H](CO)O1	-16[16.7 µM]	-13
32	COCC#Cc1cnc2c(c1)C(=O)N([C@@H](C)CO)C[C@@H](C)[C@@H](CN(C)C(=O)Nc1ccccc1F)O2	-24[16.7 µM]	13
33	O=C(C[C@@H]1C=C[C@@H](NC(=O)c2ccc3c(c2)OCO3)[C@H](CO)O1)NC1Cc2ccccc2C1	7[16.7 µM]	0
34	C[C@H]1CN([C@@H](C)CO)S(=O)(=O)c2ccc(C3=CCCC3)cc2O[C@H]1CN(C)Cc1ccccc1F	16[16.7 µM]	2
35	C[C@H]1CN([C@@H](C)CO)C(=O)c2cccc(NC(=O)Nc3ccc4c(c3)OCO4)c2O[C@H]1CN(C)Cc1ccccc1	12[16.7 µM]	4
36	CCCC#Cc1ccc2c(c1)O[C@H](CN(C)C(=O)NCCC)[C@@H](C)CN([C@H](C)CO)S2(=O)=O	-68[16.7 µM]	0
37	C[C@@H]1CN([C@@H](C)CO)C(=O)c2cc(NC(=O)Nc3ccc4c(c3)OCO4)ccc2O[C@@H]1CN(C)Cc1ccccc1	-3[16.7 µM]	2
38	CCNC(=O)C[C@H]1CC[C@H]2[C@H](COc3ccc(NC(=O)C4CCCCC4)cc3C(=O)N2C)O1	-4[16.7 µM]	-1
39	CC(C)CC#Cc1ccc2c(c1)O[C@H](CN(C)C(=O)c1cccc(F)c1)[C@H](C)CN([C@H](C)CO)S2(=O)=O	23[16.7 µM]	-7
40	O=C(C[C@H]1C=C[C@@H](NC(=O)Nc2ccc3c(c2)OCO3)[C@@H](CO)O1)NCCCN1CCOCC1	2[16.7 µM]	-11
41	Cc1ccc(S(=O)(=O)Nc2ccc3c(c2)C(=O)N([C@H](C)CO)C[C@H](C)[C@H](CN(C)S(=O)(=O)c2c(C)noc2C)OCCCC[C@@H](C)O3)cc1	-26[16.7 µM]	1
42	C[C@H](CO)N1C[C@H](C)[C@H](CN(C)Cc2ccncc2)OCCCC[C@H](C)Oc2ccc(NC(=O)c3ccccc3)cc2C1=O	1[16.7 µM]	5
43	Cc1ccc(S(=O)(=O)Nc2ccc3c(c2)C(=O)N([C@H](C)CO)C[C@H](C)[C@@H](CN(C)C(=O)C2CCCCC2)OCCCC[C@@H](C)O3)cc1	-110[16.7 µM]	7
44	COc1ccc(NC(=O)Nc2ccc3c(c2)C(=O)N([C@@H](C)CO)C[C@H](C)[C@H](CN(C)Cc2ccc4c(c2)OCO4)OCCCC[C@H](C)O3)cc1	83*[16.7 µM]	12
45	COc1ccc(S(=O)(=O)N(C)C[C@@H]2OCCCC[C@H](C)Oc3ccc(NC(=O)Nc4c(C)noc4C)cc3C(=O)N([C@@H](C)CO)C[C@@H]2C)cc1	u	17
46	CC(=O)N(C)C[C@@H]1Oc2cc(-c3ccc(C)cc3)ccc2S(=O)(=O)N([C@H](C)CO)C[C@@H]1C	12[16.7 µM]	10
47	C[C@@H]1CCCCO[C@H](CN(C)S(=O)(=O)c2cccs2)[C@H](C)CN([C@H](C)CO)C(=O)c2cc(NS(=O)(=O)c3ccc(Cl)cc3)ccc2O1	2[16.7 µM]	7
48	COc1ccc(S(=O)(=O)Nc2ccc3c(c2)CC(=O)N([C@@H](C)CO)C[C@H](C)[C@@H](CN(C)C(=O)Nc2ccc4c(c2)OCO4)O3)cc1	13[16.7 µM]	4
49	C/C=C/c1ccc2c(c1)O[C@H](CN(C)C(=O)Nc1ccccc1)[C@@H](C)CN([C@H](C)CO)S2(=O)=O	-12[16.7 µM]	3
50	O=C(C[C@H]1C[C@@H]2c3cc(NC(=O)c4ccc5c(c4)OCO5)ccc3O[C@@H]2[C@@H](CO)O1)NC1CCCC1	-21[16.7 µM]	20
51	C[C@@H]1CN([C@@H](C)CO)S(=O)(=O)c2ccc(-c3cncnc3)cc2O[C@H]1CN(C)C(=O)CN(C)C	-15[16.7 µM]	-1
52	CCCN(C)C[C@H]1OCCCC[C@H](C)Oc2ccc(NS(=O)(=O)c3c(C)noc3C)cc2C(=O)N([C@@H](C)CO)C[C@@H]1C	-7[16.7 µM]	11
53	C[C@H](CO)N1C[C@H](C)[C@@H](CN(C)Cc2cccnc2)Oc2cc(-c3ccccc3)ccc2S1(=O)=O	-8[16.7 µM]	-11
54	O=C(C[C@H]1C=C[C@@H](NC(=O)C2CCC2)[C@@H](CO)O1)Nc1nccs1	4[16.7 µM]	-10
55	COCC(=O)N(C)C[C@H]1Oc2cc(-c3ccc(C)cc3)ccc2S(=O)(=O)N([C@H](C)CO)C[C@H]1C	4[16.7 µM]	2
56	O=C(C[C@H]1CC[C@@H]2[C@H](COC[C@@H](O)CN2S(=O)(=O)c2ccccc2)O1)N1CCOCC1	-5[16.7 µM]	-10
57	C[C@H](CO)N1C[C@H](C)[C@@H](CN(C)C(=O)CCC(F)(F)F)OCCCC[C@H](C)Oc2ccc(NC(=O)CCC(F)(F)F)cc2C1=O	-18[16.7 µM]	13
58	COc1ccccc1NC(=O)N[C@@H]1CC[C@H](CC(=O)N[C@H](C)c2ccccc2)O[C@H]1CO	u	-7
59	C[C@H]1CN([C@@H](C)CO)C(=O)Cc2cc(NC(=O)C3CCCCC3)ccc2O[C@@H]1CN(C)Cc1ccc2c(c1)OCO2	15[16.7 µM]	3
60	CC(=O)N(C)C[C@@H]1Oc2ncc(-c3cccc(F)c3)cc2C(=O)N([C@@H](C)CO)C[C@@H]1C	-5[16.7 µM]	0
61	CCCNC(=O)C[C@@H]1C[C@@H]2c3cc(NS(=O)(=O)c4ccc(F)cc4)ccc3O[C@@H]2[C@@H](CO)O1	13[16.7 µM]	8
62	C[C@@H]1CCCCO[C@@H](CN(C)CC2CCCCC2)[C@@H](C)CN([C@H](C)CO)C(=O)c2cc(NS(=O)(=O)c3cn(C)cn3)ccc2O1	-3[16.7 µM]	1
63	Cc1ccc(S(=O)(=O)N(C)C[C@@H]2Oc3ccc(NC(=O)Cc4ccccc4)cc3CC(=O)N([C@@H](C)CO)C[C@@H]2C)cc1	45[16.7 µM]	9
64	Cc1noc(C)c1S(=O)(=O)Nc1cccc2c1O[C@@H](CN(C)C(=O)NC(C)C)[C@@H](C)CN([C@H](C)CO)C2=O	3[16.7 µM]	2
65	O=C(C[C@H]1CC[C@@H](NC(=O)c2cccc(F)c2)[C@H](CO)O1)NCc1ccc(Oc2ccccc2)cc1	69*[16.7 µM]	-8
66	CNC[C@H]1OCCCC[C@H](C)Oc2ccc(NC(=O)Nc3ccccc3)cc2C(=O)N([C@H](C)CO)C[C@H]1C	-3[16.7 µM]	21
67	C[C@H](CO)N1C[C@H](C)[C@H](CN(C)C(=O)C2CC2)Oc2cc(-c3ccc(C#N)cc3)ccc2S1(=O)=O	-16[16.7 µM]	7
68	O=C(NCC[C@H]1CC[C@H](NC(=O)c2ccc3c(c2)OCO3)[C@@H](CO)O1)Nc1cc(F)ccc1F	4[16.7 µM]	-1

# Env fusion inh, hit marks shown above.
no.	structure	Env fusion inh	Yeast UUG start
44	COc1ccc(NC(=O)Nc2ccc3c(c2)C(=O)N([C@@H](C)CO)C[C@H](C)[C@H](CN(C)Cc2ccc4c(c2)OCO4)OCCCC[C@H](C)O3)cc1	83*[16.7 µM]	12
65	O=C(C[C@H]1CC[C@@H](NC(=O)c2cccc(F)c2)[C@H](CO)O1)NCc1ccc(Oc2ccccc2)cc1	69*[16.7 µM]	-8

# A second format for some results above.
17	C[C@@H]1CN([C@@H](C)CO)C(=O)Cc2cc(NS(=O)(=O)c3cccs3)ccc2O[C@H]1CN(C)C(=O)Nc1ccc2c(c1)OCO2
18	C[C@H](CO)N1C[C@H](C)[C@H](CN(C)C(=O)NC2CCCC2)Oc2ncc(C#CCN(C)C)cc2C1=O
Assay by compound | 17 | 18
Env fusion inh | -9[16.7 µM] | -3[16.7 µM]
Yeast UUG start | 2 | 3
